NPYLR7 ag = agonists of mosquito NPYLR7 receptor, primary screen, cell-based, Aedes aegypti, calcium fluorescence, mosquito biting behavior; activation, % at 10 µM; AID 1259423, 2018; HEK293T NPYLR7/Galpha15, GCaMP6s calcium fluorescence; Aedes aegypti neuropeptide Y-like receptor 7 (NPYLR7); hit rate 0.15% among 270,000; in the data active = activation above about 40%;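 also: 0% = vehicle and 100% = reference agonist at the receptor; some compounds past the cut are filed as inactive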
NPYLR7 ag max-min = further read-out of NPYLR7 ag, marked with its call; activation, %; measured here: Max-Min RFU normalised activation; some inactives read as strong as hits;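 span of the calcium signal over five minutes; 0% = vehicle and 100% = native peptide agonist; compound fluorescence can raise it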
* = called active by the depositor; & = joins results of further samples. These rows are one share of the data; count on the stated rates, not on these rows.

Below each SMILES: NPYLR7 ag	NPYLR7 ag max-min
> Cc1ccc2oc(CN(C(=O)c3ccc(Cl)nc3)C3CCCCC3)nc2c1
→ -19	-19
> CCCCC1=NC2(CCCC2)C(=O)N1Cc1ccc(-c2ccccc2-c2nn[nH]n2)cc1
→ -5&-17&-4	-6&-26&-13
> CSCCCNC(=O)c1cc(N2CCSCC2)nc2ccccc12
→ 27	24
> CN1CC(=O)N2CCN(S(=O)(=O)c3cc4ccccc4o3)CC2C1=O (stereo not drawn)
→ 2	-3
> N#Cc1c(F)cccc1S(=O)(=O)Nc1ccc(-n2cncn2)cc1
→ 10	7
> Cc1cc(NC(=O)C2CCCN2c2ncnc3sccc23)ccc1N(C)C (stereo not drawn)
→ 8	5
> COc1ccc2nc(N(Cc3cccnc3)C(=O)/C=C/c3cccs3)sc2c1
→ -9	-9
> CN(C)C(=O)C1CCCN1C(=O)COCC(F)(F)C(F)F (stereo not drawn)
→ 0	-3
> Cc1ccc(O)c(CN(Cc2ccncc2)Cc2ccc(F)cc2)n1
→ 3	3
> O=C(NCc1ccco1)C1CCN(S(=O)(=O)c2cccs2)CC1
→ -5	-9

Later entries:
Below each SMILES: NPYLR7 ag	NPYLR7 ag max-min
> CCC12CC3CC(O)(C1)CC(C(=O)N(C)Cc1ccno1)(C3)C2 (stereo not drawn)
→ 0	-4
> CN(CCc1ccncc1)C(=O)c1cc2occc2n1CC1CC1
→ -11	-12
> OCc1ccc2ccccc2n1
→ 7	13
> CCOc1nn(CC)cc1C(=O)N1CCN(C)CC1
→ 2	4
> c1ccc(COC2CCCN(Cc3nc(-c4cccs4)no3)C2)nc1 (stereo not drawn)
→ -2&7	-4&5
> C[C@@H]1CN(CCC(=O)NCCC2CN(C)CCO2)C[C@H](C)O1 (stereo partly drawn)
→ 6	4
> COC1CCN(Cc2cc(C)cc(C)c2)CC1
→ 13	5
> CCC(C)N(Cc1ccc(OS(=O)(=O)c2ccc(NC(C)=O)cc2)cc1)C(=O)c1ccco1 (stereo not drawn)
→ 3	12
> Cc1cc(O)c(CN2CCC2c2ccccc2)cc1C (stereo not drawn)
→ 2	1
> CC(NC(=O)CCc1nc2ccccc2c(=O)[nH]1)C1CC2CCC1C2 (stereo not drawn)
→ 13	9

Later entries:
Below each SMILES: NPYLR7 ag	NPYLR7 ag max-min
> CC(Nc1ccc([N+](=O)[O-])cc1S(=O)(=O)N1CCOCC1)c1cccc(Cl)c1 (stereo not drawn)
→ 12	16
> Cc1cccc(Cn2c(CN3CC(C)OC(C)C3)nc3c2c(=O)n(C)c(=O)n3C)c1 (stereo not drawn)
→ -2	2
> CN(C)CCn1c(=O)c2[nH]cnc2n(C)c1=O
→ 1	-2
> CCc1nc2ccc(C(=O)Nc3ccc4c(c3)OCC(=O)N4)cn2c1N(CC)Cc1cccc(Br)c1
→ -3	8
> COCC(=O)Nc1ccc(N(C)C)c(CN(CC2CCCO2)C(=O)c2cccc(C)c2)c1 (stereo not drawn)
→ -12	3
> COc1ccc(NC(=O)C2(C)CCN2C(=O)C2(c3ccc(Cl)cc3)CCC2)cc1OC (stereo not drawn)
→ 9	7
> Cc1ccc(S(=O)(=O)N2CCC(C(=O)NCCCOC(C)C)CC2)cc1
→ 8	11
> Cc1[nH]c2ccc(CNC(=O)C3CCCN(c4ccccn4)C3)cc2c1C (stereo not drawn)
→ -3	-5
> Cc1cc(=O)n2c(-c3cccc(NS(=O)(=O)c4ccc5ccccc5c4)c3)csc2n1
→ -4	-4
> Cn1cc(NC(=O)CN2CCCC2c2ccc(F)cc2)cn1 (stereo not drawn)
→ -1	-1

Brought forward from above: two compounds; new compounds follow.
Below each SMILES: NPYLR7 ag	NPYLR7 ag max-min
> Cc1cc(=O)n2c(-c3cccc(NS(=O)(=O)c4ccc5ccccc5c4)c3)csc2n1
→ -4	-4
> Cn1cc(NC(=O)CN2CCCC2c2ccc(F)cc2)cn1 (stereo not drawn)
→ -1	-1
> CC(c1ccc(F)cc1)N(C)C(=O)C1CCN(S(=O)(=O)c2ccc3c(c2)CCC3)CC1 (stereo not drawn)
→ 10	14
> Cc1c(N=C2C(=O)N(C(C)C)c3ccccc32)c(=O)n(-c2ccccc2)n1C
→ -1	-3
> COCCCN1C(=O)N(Cc2ccccn2)C(=O)C12CCN(Cc1nccs1)CC2
→ 19	6
> Fc1ccccc1-c1ccc(CN2CCNCC2)s1
→ 5	0
> CCCCCOc1ccc(Nc2cc(-c3cccc(N)c3)ncn2)cc1
→ 7	4
> CCOC(=O)c1ccc2c(c1)nc(SCc1ccc3nc(C(F)(F)F)cc(Cl)c3c1)n2Cc1ccccn1
→ -14	-12
> CC/C=C/CC(=O)N(Cc1c(C)nn(C)c1C)C(C)C
→ -2	-8
> CCSCC(C)NCc1nn(C)c2ccc(C)cc12 (stereo not drawn)
→ 5	32
> N#CC(C=Nc1ccc2c(c1)OCCO2)c1nc2ccccc2s1 (stereo not drawn)
→ 3	0
> COCCCNC(=O)C(NC(=O)c1ccc(OC)cc1)C1CCN(C(=O)c2ccco2)CC1 (stereo not drawn)
→ -7	-9

Part of the list above, set out differently.
structure | NPYLR7 ag | NPYLR7 ag max-min
Fc1ccccc1-c1ccc(CN2CCNCC2)s1 | 5 | 0
CCCCCOc1ccc(Nc2cc(-c3cccc(N)c3)ncn2)cc1 | 7 | 4
CCOC(=O)c1ccc2c(c1)nc(SCc1ccc3nc(C(F)(F)F)cc(Cl)c3c1)n2Cc1ccccn1 | -14 | -12
CC/C=C/CC(=O)N(Cc1c(C)nn(C)c1C)C(C)C | -2 | -8

The results go on.
Below each SMILES: NPYLR7 ag	NPYLR7 ag max-min
> Cc1cccc(NC(=O)NCCNc2cc(N(C)C)nc(C)n2)c1
→ -1	-4
> CNc1cc2nc[nH]c(=O)c2cc1[N+](=O)[O-]
→ 2	4
> COc1ccc(N2CCN(C(=O)C3CCCCC3C(=O)NCCc3cccc(OC)c3)CC2)cc1 (stereo not drawn)
→ -5	-12
> CCc1nnc(-c2cc3ccccc3n2CC(=O)NC(C)(C)C)o1
→ -4	-4
> Cc1sc2nc(CS)[nH]c(=O)c2c1C
→ 0	8
> O=C(c1ccco1)N1CCC2(CC1)OCC(C(=O)N1CCCC1)N2C(=O)c1ccccc1 (stereo not drawn)
→ 4	13
> CC(C)C(NCC(O)COc1ccccc1F)c1ccc2c(c1)OCCO2 (stereo not drawn)
→ 13	9
> CCCC(NC(=O)C1CNC1)c1ccccc1 (stereo not drawn)
→ -1	-2
> O=C(C1CCOC1)N1CCN(Cc2ccc(-c3noc(-c4ccccc4)n3)cc2)CC1 (stereo not drawn)
→ 4	3
> CCc1nc(SCC(=O)NC(c2ccncc2)c2ccccc2C)n[nH]1 (stereo not drawn)
→ 4	2

Later entries:
Below each SMILES: NPYLR7 ag	NPYLR7 ag max-min
> CCOC(=O)C1CCN(C(=O)c2cccc(CSc3nc(N4CCCC4)cc(C(C)(C)C)n3)c2)CC1
→ 7	8
> O=C(c1ccc(N2CCC(NCC3C4CC5CC(C4)CC3C5)CC2)cc1)N1CCCC(CO)C1 (stereo not drawn)
→ 6	5
> CCCC(=O)C1=C(c2ccc([N+](=O)[O-])cc2)N(C(=O)CCC)n2c(C)nnc2S1
→ 1	-1
> O=C(Nc1c(Cl)cccc1Cl)N1CCSC1c1ccccc1OCc1ccccc1 (stereo not drawn)
→ 11	16
> O=S(=O)(c1ccc(Br)cc1)N1CCN(c2c(-c3ccccc3)cnc3ncnn23)CC1
→ 27	14
> COc1ccc(-c2nccn2C2Cc3ccccc3C2)c(OC)c1
→ -1	0
> CCOc1ncccc1C(=O)NCc1cc(-c2ccc3c(c2)CC(C)O3)on1 (stereo not drawn)
→ -1	-3
> O=C1CCN(CC(O)Cc2ccccc2)c2ccccc2CN1C1CC1 (stereo not drawn)
→ 0	7
> Cc1ccccc1CSc1ncccc1C(=O)N1CCN(c2cccc(Cl)c2)CC1
→ -8	-1
> Cc1ccc(NC(=O)C2(C)CCN2C(=O)C2CCCCC2)cc1C (stereo not drawn)
→ 4	3

Looked up above:
Under NPYLR7 ag, `COc1ccc(-c2nccn2C2Cc3ccccc3C2)c(OC)c1` reads -1
Under NPYLR7 ag, `Cn1cc(NC(=O)CN2CCCC2c2ccc(F)cc2)cn1` (stereo not drawn) reads -1

Later entries
Below each SMILES: NPYLR7 ag	NPYLR7 ag max-min
> Cn1ccnc1-c1nccn1CCCn1ccnc1
→ 8	4
> CC(C)(C)NC(=O)N(Cc1ccc(F)cc1)Cc1cccc(OS(=O)(=O)c2ccc(F)cc2)c1
→ 1	3
> CCN1c2ccccc2NC2C(C(=O)Oc3ccc(O)cc3)=C(C)OC21 (stereo not drawn)
→ -2	-4
> Fc1ccccc1N1CCN(c2nc(C(F)(F)F)nc3ccccc23)CC1
→ 8	6
> COc1ccc(Cl)cc1-c1noc([C@@H]2O[C@H](CO)[C@H](O)[C@H](O)[C@H]2O)n1
→ 4	2
> COCCNC(=O)CCNC(=O)N1CCCC(c2ccccc2)CC1 (stereo not drawn)
→ 3	1
> CCOc1ccc2c(c1)C(C)=CC(C)(C)N2C(=O)CSc1n[nH]c(C(C)C)n1
→ 11	4
> CCCCCCN(C(=O)c1cccc(OC)c1)C(CC)c1nc2ccccc2c(=O)n1C (stereo not drawn)
→ 17	9
> O=C(Nc1cccc(Cl)c1)c1cc2nc(-c3ccc(Br)cc3)cc(C(F)(F)F)n2n1
→ 8	9
> N#CC1(Cc2ccccc2)c2ccccc2C=CN1C(=O)c1ccccc1 (stereo not drawn)
→ 13	11

Carrying on.
Below each SMILES: NPYLR7 ag	NPYLR7 ag max-min
> Cc1ccc(-n2c(SCc3ccc(C(=O)Nc4cccc(F)c4)cc3)nnc2-c2cccnc2)cc1
→ -8	-5
> CC(C)NC(=O)C1(C)CCN1C(=O)c1ccccc1C(F)(F)F (stereo not drawn)
→ -1	-4
> Cc1ccc(C2CSCCN2Cc2cc(=O)c(O)co2)o1 (stereo not drawn)
→ 2	1
> CCNC(=O)COc1cccc(NS(=O)(=O)c2cccc(Cl)c2C)c1
→ 1	-1
> COc1cccc(-n2cnnc2SCC(=O)c2ccccc2)c1
→ 19	11
> O=C(CCN1C(=O)COc2ccccc21)N1CCc2ccccc2C1
→ 21	11
> CCCn1c(=S)[nH]c2sc3c(c2c1=O)CCCC3
→ 11	10
> COc1ccc(C(=O)N(Cc2csc(COc3cccc(C)c3C)n2)CC(C)C)cc1
→ -8	3
> COC(=O)[C@H](NC(=O)[C@@]1(O)C[C@@H](O)[C@H](O)[C@@H](NC(=O)CC2(CC(=O)O)CCCC2)C1)C(C)C
→ -5	-13
> c1ccc2c(c1)CCC21CCN(Cc2cc3n(n2)CCNC3)CC1
→ 14	12

The list continues:
Below each SMILES: NPYLR7 ag	NPYLR7 ag max-min
> Fc1ccc2c(c1)sc1nc(-c3ccccc3F)cn12
→ 0	-4
> O=C(Nc1nc2c(s1)CCCC2)c1cccc(N2CCCC2=O)c1
→ 14	2
> CN(C)c1ccc(C2CC(=O)Nc3c2c(-c2cccnc2)nn3C)cc1 (stereo not drawn)
→ 3	0
> CCc1cn[nH]c1C1CCCN(C(=O)c2ccccc2-c2ncn[nH]2)C1 (stereo not drawn)
→ -1	1
> Cc1cc(=O)oc2cc(OC(C)C(=O)Nc3ccc(Cl)cc3Cl)ccc12 (stereo not drawn)
→ 28	23
> CC(=O)Nn1cc2c(c1-c1ccccc1)c(=O)n(C)c(=O)n2C
→ -10	-14
> CN(Cc1cccc(NC(=O)CC(F)(F)F)c1)Cc1cscn1
→ -2	-11
> CC(C)(C)c1cc(CNC(=O)c2cccc(OC3CCN(C(=O)C4CC4)CC3)c2)[nH]n1
→ -5	-11
> O=C(C1=CCCCC1)N1CCC(n2cnc3ccccc32)CC1
→ -1	3
> Cc1ccc(C(F)(F)F)cc1NCC(=O)N(C)C
→ 8&3	4&8

Going on with the list:
Below each SMILES: NPYLR7 ag	NPYLR7 ag max-min
> Cc1nnc(-c2cc3ccccc3n2CC(N)=O)o1
→ 8	2
> CC(C)C(NS(=O)(=O)C=Cc1ccccc1)C(=O)NCc1ccc2c(c1)OCO2 (stereo not drawn)
→ 14	3
> CC(OC(=O)c1ccc2c(c1)OCCO2)C(=O)Nc1ccccc1F (stereo not drawn)
→ 3	-1
> COC(=O)c1ccc(C(=O)NC2CCCN(Cc3cccc(OC)c3)C2)cc1 (stereo not drawn)
→ 2	1
> O=C(NCc1ccco1)c1cc2n(n1)CCN(Cc1ccccc1)C2=O
→ 19	27
> CCC(CC)C(=O)N(Cc1ccccc1)[C@@H]1C[C@@H]2CO[C@H](c3ccccc3)C[C@@H]2C1
→ 18	27
> CC(C)(C)NC(=O)c1cccc(NC(=O)Cc2ccc(Br)cc2)c1
→ 4	7
> O=C1NC(=O)C2C3CC(C4N=NN(c5ccc(Br)cc5)C34)C12 (stereo not drawn)
→ 12	8
> COc1ccc(OC)c(-c2ccc(SCC(=O)N3CCCCCC3)nn2)c1
→ 7	2
> Cc1ccc(C(=O)CSc2nnc(NC(=O)C(C)Cl)s2)c(C)c1 (stereo not drawn)
→ -7	7

Additional structures follow.
Below each SMILES: NPYLR7 ag	NPYLR7 ag max-min
> Clc1ccccc1-c1nnc2sc(-c3ccccn3)nn12
→ 3	-5
> N#Cc1cccc(C(=O)N2C[C@H](Oc3ccccn3)[C@H]3C[C@@H]2Cc2c3[nH]c3ccccc23)c1
→ -5	-4
> CCOC(=O)c1nn(-c2ccccc2)c(=O)cc1OCC(=O)NCc1ccc(C)cc1
→ 10	4
> CCN(CC)S(=O)(=O)c1ccc(S(=O)(=O)Nc2ccccc2C(=O)NC2CCCC2)cc1
→ 0	7
> COc1ccccc1CNc1nccn(-c2cccc(C)c2)c1=O
→ 0	-2
> NS(=O)(=O)CCCC(=O)N1CCCC(CCc2c(F)cccc2F)C1 (stereo not drawn)
→ -5	-5
> CSc1ncccc1C(=O)N(C)C1CCCN(CCCc2ccccc2)C1 (stereo not drawn)
→ 4	0

Screens: PubChem BioAssay, Fisher Drug Discovery Resource Center
